V. cholerae motility – Vibrio cholerae motility inhibitors, OD read-out (AID 588778). Vibrio cholerae motility, OD read-out; higher % means a stronger effect; test concentration not given here; primary cut-off and reference of the scale not given here; strong numbers were not always called active. one-dose inhibition, %; IC50 in µg/mL for titrated hits. 10,000 tested, under 10 active; in the data active = confirmed in a dose series
V. cholerae motility viability – recorded beside V. cholerae motility, whose call it bears; inhibition, %; measured here: bacterial viability at 10 ug/mL;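 higher means fewer living bacteria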
* hit, by the source's call. Not all compounds are listed; the hit share may differ from the screen's.

Compound	V. cholerae motility	V. cholerae motility viability
COc1ccc2nc(NC(=O)c3nc(SC)ncc3Cl)sc2c1	-9.3%	-4.5
O=C(CN1C(=O)c2ccccc2C1=O)OCC(=O)N1c2ccccc2Sc2ccccc21	11.0%	-4.2
CCOC(=O)c1cc(C)n(CCc2ccccc2)c1C	2.9%	-2.0
CN(C)C(=S)c1cc(C(C)(C)C)c(O)c(C(C)(C)C)c1	17.6%	21.4
CCOc1ccc(C(=O)Nc2cc3nn(-c4ccccc4)nc3cc2C)cc1Br	-2.3%	25.8
CCOC(=O)c1nc(NC(=O)c2ccc(Cl)cc2)sc1C	10.3%	4.0
COC(=O)c1ccc2c(=O)n(CCc3c[nH]c4ccc(OC)cc34)c(=S)[nH]c2c1	-40.2%	-16.8
O=C(Nc1nnc(SCc2ccc(F)cc2)s1)c1ccccc1[N+](=O)[O-]	6.5%	-2.0
OC(COc1ccccc1)CSc1ncn[nH]1 (centres undefined)	-24.8%	-13.2
COC(=O)COc1ccc(=O)n(-c2ccccc2)n1	2.1%	2.0
COc1ccc(C(=O)CCN2CCN(c3ccccc3F)CC2)cc1	5.7%	0.5
CC(=O)N1CCC(=O)c2cc3ccccc3cc21	-2.3%	-1.8
CCOC(=O)Cc1csc(NC(=O)CCCN2C(=O)c3cccc4cccc(c34)C2=O)n1	-10.4%	-3.1
Clc1ccc2c(c1Cl)NC(c1ccccn1)C1CC=CC21 (centres undefined)	1.6%	2.9
CC1(C)CN=C(NCCNC2=NCC(C)(C)S2)S1	1.7%	-2.5
CN(C)CCCn1c(=N)n(CC(O)C(C)(C)C)c2ccccc21 (centres undefined)	18.2%	3.7
CCCC(=O)c1ccc(OCc2nc3ccccc3[nH]2)cc1	59.8%	20.1
Nc1nnc(SCC(=O)N2CCN(C(c3ccccc3)c3ccccc3)CC2)s1	0.7%	-1.5
O=C(Nc1cccc(C(F)(F)F)c1)C1(c2ccccc2)CCOCC1	9.0%	2.5
N#Cc1cc2c(nc1SCC(=O)Nc1ccc(S(=O)(=O)Nc3ncccn3)cc1)CCCC2	18.8%	5.3
C=CCc1cc(/C=C2\C(=O)NC(=O)N(c3ccc(Br)c(C)c3)C2=O)cc(OC)c1OCC(=O)O	-0.4%	-5.4
C=CCc1ccccc1OCc1ccc(C(=O)NC2CCCCC2)cc1	-3.9%	0.4
CCC(=O)Nc1ccc(NC(=S)Nc2ccccc2)cc1	-9.1%	-7.1
NC(=O)C1CCCN(C(=O)Nc2cccc3ccccc23)C1 (centres undefined)	20.2%	15.7

Single entries from the entries so far:
Reading of CN(C)CCCn1c(=N)n(CC(O)C(C)(C)C)c2ccccc21 (centres undefined) in V. cholerae motility viability: 3.7
Reading of O=C(Nc1cccc(C(F)(F)F)c1)C1(c2ccccc2)CCOCC1 in V. cholerae motility: 9.0%
Reading of Clc1ccc2c(c1Cl)NC(c1ccccn1)C1CC=CC21 (centres undefined) in V. cholerae motility viability: 2.9
Reading of Nc1nnc(SCC(=O)N2CCN(C(c3ccccc3)c3ccccc3)CC2)s1 in V. cholerae motility viability: -1.5
Reading of CCCC(=O)c1ccc(OCc2nc3ccccc3[nH]2)cc1 in V. cholerae motility: 59.8%

Further structures
Compound	V. cholerae motility	V. cholerae motility viability
CC(C(=O)OCC(=O)c1ccccc1)N1C(=O)c2cc(Cl)c(Cl)cc2C1=O (centres undefined)	13.9%	21.7
COC(=O)c1cn(C(=O)CCCN2C(=O)c3ccccc3C2=O)c2ccccc12	14.9%	3.8
Cc1nc2c([nH]c3ccc(Br)cc32)s1	-1.6%	2.3
Cc1ccc2cccc(OC(=O)N(C)c3ccccc3)c2n1	-0.2%	-1.7
C=C(C)Cn1c(SCC(=O)OCC)nc2ccc(Br)cc2c1=O	-7.5%	-7.8
CCOC(=O)c1c(NC(=O)Cn2cnc3sc(C)c(C)c3c2=O)sc(C)c1C	-7.2%	-4.5
CC(=O)Oc1ccc2oc(C)c(C(=O)Oc3ccc4cc(-c5nc6ccccc6o5)c(=O)oc4c3)c2c1	11.3%	22.8
c1ccc2[nH]c(CN3CCCCCC3)nc2c1	-7.1%	-5.8
O=C(c1ccccc1)n1cnc(-c2ccccc2)c1-c1ccccc1	4.5%	-1.2
CCOC(=O)c1c(NC(C)=O)sc2c(OCC(O)CN(CC)CC)c(Br)ccc12 (centres undefined)	9.1%	0.8
Cc1sc(NC(=O)Cc2cccs2)c(C#N)c1-c1ccccc1	-25.4%	-11.4
Cc1cc(C(=O)N2CCN(Cc3ccc4c(c3)OCO4)CC2)c(C)o1	-7.7%	-1.8
N#C/C(=C/c1ccc(O)c(Br)c1)c1ccc([N+](=O)[O-])cc1	-6.5%	-1.6
Cc1cccc(OCCn2c(NC(=O)c3cccc(F)c3)nc3ccccc32)c1	4.5%	3.3
N/C(=N\C(=O)Nc1ccccc1)N1CCN(Cc2ccccc2)CC1	-2.1%	2.5
Cc1ccc2c(c1)nc(NCCCO)n2C	-14.3%	-1.3
Cc1cc(C)nc(NC(=O)C(C)Oc2ccc(Cl)cc2Cl)n1 (centres undefined)	2.5%	0.8
CC(N)C1COc2ccccc2O1 (centres undefined)	12.6%	7.1
O=C(Nc1cccc([N+](=O)[O-])c1)C1CC(=O)N(c2ccccc2Cl)C1 (centres undefined)	6.2%	2.2
O=C(Cc1cccc2ccccc12)NC(=S)N1CCc2ccccc21	13.8%	3.4
Brc1ccc(C2CC(c3ccco3)n3ncnc3N2)cc1 (centres undefined)	21.0%	26.8
O=C(Cc1ccc(F)cc1)n1nnc2ccccc21	18.2%	-2.7
C=CCC1N(c2ccccc2Cl)C(=O)C2C(C(=O)O)C3C=CC21O3 (centres undefined)	3.1%	-2.0
COc1ccccc1CNC(=O)CSCc1ccccc1C	-0.3%	0.2
Cc1cc(=O)c2c(o1)CC(C)(C)CC2=O	-7.8%	-4.0
Cc1nc(N)sc1-c1csc(Nc2ccc(Cl)cn2)n1	60.5%	19.8
Cc1cc2c(cc1C)NC(c1c(C)n(C)n(-c3ccccc3)c1=O)C1=C(CC(C)(C)CC1=O)N2 (centres undefined)	11.1%	-0.8
Cc1ccc2c(CC(=O)NCc3ccco3)coc2c1C	13.3%	3.4
Cc1cc(C)n(-c2ncnc3sc4c(c23)CC(C)CC4)n1 (centres undefined)	6.5%	-2.1
Cc1sc(-n2c(C)cc(C=O)c2C)c(C(=O)O)c1C	-5.5%	-0.2
Cc1cc(C(=O)N2CCN(C/C=C/c3ccccc3)CC2)no1	-9.4%	-2.7
CCOc1nc(Nc2nc(-c3ccccc3)cs2)nc(OCC)n1	44.5%	44.3
O=C(NCCc1ccccc1F)c1ccc(C#Cc2ccccc2)cc1	-41.8%	-13.4
CC1Cc2ccccc2N1S(=O)(=O)c1cccc2nsnc12 (centres undefined)	6.5%	21.1
O=CN1Cc2ccccc2-c2ccccc2C1	6.8%	3.2
Cc1ccc(S(=O)(=O)NCCSc2nnc(Nc3ccccc3)s2)cc1	5.9%	1.7
O=[N+]([O-])c1ccc(S(=O)(=O)CC2CSc3ncnc4ncn2c34)cc1 (centres undefined)	-7.7%	-3.3
CC(C)(C)c1cc(Br)cc(C=O)c1O	4.4%	-3.2
N#CCSc1nc(-c2ccccc2)cs1	46.4%	10.2
O=C(c1ccccc1F)N1C(=O)c2cccc3cccc1c23	-26.3%	-10.8
CSc1ccc(CN2CCN(C(=O)c3cccnc3)CC2)cc1	47.6%	45.9
Cc1sc(NC(=O)c2csc3ccccc23)c(C#N)c1C	-17.7%	-5.6
Cc1cc(C)c(C#N)c(SCC(=O)Nc2nsc(-c3ccc(Cl)cc3)n2)n1	14.5%	10.2
CC(C)(O)C#Cc1ccc(C(=O)NC(C(=O)O)c2ccccc2)s1 (centres undefined)	-2.4%	2.9
CCOC(=O)N1CCN(C(=O)CN2C(=O)/C(=C/c3ccc(C(C)C)cc3)SC2=S)CC1	10.0%	1.0
Cc1onc(-c2ccccc2Cl)c1C(=O)N1CCCCC1C(=O)O (centres undefined)	9.3%	-4.2
Cc1sc(NC(=O)C2C3C=CC(C3)C2C(=O)O)c(C#N)c1C (centres undefined)	7.4%	-0.9
CC(C)c1cccc(C(C)C)c1NC(=O)c1cncc(Br)c1	-9.9%	-9.4

One compound at a time, from the list above:
Brc1ccc(C2CC(c3ccco3)n3ncnc3N2)cc1 (centres undefined) reads V. cholerae motility: 21.0%; V. cholerae motility viability: 26.8
Cc1cc2c(cc1C)NC(c1c(C)n(C)n(-c3ccccc3)c1=O)C1=C(CC(C)(C)CC1=O)N2 (centres undefined) reads V. cholerae motility: 11.1%; V. cholerae motility viability: -0.8

(cont.)
Compound	V. cholerae motility	V. cholerae motility viability
O=[N+]([O-])c1ccc(NCc2ccco2)c2ncccc12	1.5%	-0.6
CC(Sc1nc2ccccc2s1)C(=O)NNC(=S)NCc1ccco1 (centres undefined)	12.8%	-2.3
O=C(Nc1cccnc1)Nc1cccc(Cl)c1	59.6%	22.3
Cc1cc(C)nc(N/C(=N/S(=O)(=O)c2ccc([N+](=O)[O-])cc2)Nc2ccccc2C(F)(F)F)n1	3.0%	3.2
O=C(Nc1ccncc1)C1COc2ccccc2O1 (centres undefined)	10.7%	1.9
O=C(O)CCC(=O)NNC(=O)CCc1ccccc1	13.9%	7.8
CN1CCC(NC(=O)c2cccc(C(F)(F)F)c2)CC1	29.7%	14.5
COc1cc(C=O)ccc1Oc1nc(N2CCCCC2)nc(N2CCCCC2)n1	1.1%	-5.5
O=c1c2ccccc2nc(-c2ccco2)n1-c1nc2ccccc2s1	-19.6%	-13.7
Cc1cc(SC#N)ccc1NC(=O)C12CC3CC(CC(C3)C1)C2	2.2%	-1.4
N#C/C(=C/c1cn(CC(=O)N2CCOCC2)c2ccccc12)c1nc2ccccc2[nH]1	11.2%	2.6
COCC(=O)N(Cc1ccccc1)C(C)(C)C	4.6%	-3.0
Cc1cc(NC(=S)NCCc2ccccc2)nn1Cc1ccc(Cl)cc1	-21.3%	-3.7
O=C(COc1ccccc1)N(Cc1ccco1)c1ccc(O)cc1	15.0%	21.9
CC(=O)n1cc(C=C2C(=O)NC(=O)NC2=O)c2ccccc21	15.5%	5.6
COc1cccc2c(NCCCN3CCCC3=O)nc(C(Cl)(Cl)Cl)nc12	-2.6%	2.8
O=[N+]([O-])c1ccc(N2CCN(C(=S)NCc3ccc(Cl)cc3)CC2)cc1	-9.8%	-2.5
O=C1c2cccc3cccc(c23)C(=O)N1CCN1CCN(S(=O)(=O)c2cccs2)CC1	-17.0%	-7.8
Cc1ccc(CNCC2CCCO2)s1 (centres undefined)	21.9%	7.0
O=C1OC(C(=O)Nc2cc(C(F)(F)F)ccc2Cl)Cc2ccccc21 (centres undefined)	-5.9%	-7.2
C=CCNC(=O)C1CC(=O)N(c2ccc(OCC(=O)Nc3c(C)cccc3CC)cc2)C1 (centres undefined)	-7.1%	-4.9
COc1ccc(Cl)cc1NC(=S)N1c2ccc(F)cc2CCC1C (centres undefined)	10.3%	-3.8
Cc1ccc(C(=O)N2c3ccc(F)cc3CCC2C)o1 (centres undefined)	16.1%	12.6
CC(NC(=O)CSc1nnc(-c2ccc(Br)cc2)n1C)c1ccccc1 (centres undefined)	12.2%	0.3
CN1CCN(S(=O)C23CC4CC(CC(C4)C2)C3)CC1 (centres undefined)	1.8%	-2.3
CCCC(C)C(=O)n1nnc2ccccc21 (centres undefined)	-7.9%	-4.8
O=[N+]([O-])c1cccc(Cl)c1CSc1ccccn1	23.7%	10.7
CCOc1ccccc1OCCN1CCC(Cc2ccccc2)CC1	14.7%	2.1
Cc1cc(Cl)ccc1NC(=S)NCCC(c1ccccc1)c1ccccc1	-16.3%	-14.1
COc1ccc(NC(=O)NNC(=O)c2ccccc2I)cc1OC	0.9%	-6.1
C=CCn1c(NC(=O)C2(c3ccc(F)cc3)CCCC2)c(C(=O)OCC)sc1=S	-15.9%	-6.6
O=C(NNC(=O)C12CC3CC(C1)CC(c1ccccc1)(C3)C2)c1ccncc1	-1.2%	2.4
CC(=O)N(C)c1ccc(NC(=O)c2ccc(C(C)(C)C)c(Br)c2)cc1	16.1%	3.5
O=C(c1cccnc1)N1N=C(c2ccccc2)CC1(O)C(F)(F)C(F)(F)C(F)(F)F (centres undefined)	34.9%	9.2
O=C(NC(Cc1ccccc1)c1nc2ccccc2[nH]1)c1cc(F)c(F)cc1Cl (centres undefined)	16.6%	30.1
O=C(CC1C(=O)Nc2ccccc2N1S(=O)(=O)c1cccs1)Nc1cccc(Cl)c1 (centres undefined)	7.6%	-0.2
O=C(Nc1nnc(CSCc2ccccc2F)s1)C1CCCCC1	-13.1%	-5.3
CN1C2C=C(N(C(=O)c3ccc(Cl)cc3)c3ccccc3)CC1CC2 (centres undefined)	2.7%	-8.3
CCSc1cc(C2C(C#N)=C(N)Oc3n[nH]c(C)c32)c(C)o1 (centres undefined)	5.5%	-3.1
O=C(Oc1ccc2ccccc2c1Br)N1CCCCCC1	-6.1%	3.1
OC(COc1ccccc1)COc1ccccc1	10.9%	1.2
CC(=O)c1cc(C(C)=O)c(Nc2ccccc2)s1	3.8%	-4.7
C=CCn1c(N)cc(=O)nc1SCC(=O)N1c2ccccc2Sc2ccccc21	-8.6%	0.8
CC(Sc1nc(-c2ccccc2)cc(C(F)(F)F)n1)C(=O)NCc1ccco1 (centres undefined)	-2.5%	-7.5
O=C(CCNC(=O)Nc1cccc(Cl)c1)NCCOCc1ccccc1	5.0%	-4.7
CC(C)(C)OC(=O)NNC(=S)NCC1CCCO1 (centres undefined)	9.3%	-0.5
O=[N+]([O-])c1ccc2nc(CSc3nc4ccccc4s3)[nH]c2c1	9.5%	-7.6
COc1cc(OC)cc(C(=O)NC(=S)N2CC3CC(C2)c2cccc(=O)n2C3)c1 (centres undefined)	-6.9%	3.8
CC1=CCC(C(=O)O)C(C(=O)Nc2cccnc2)C1 (centres undefined)	-5.4%	-4.0
O=C(OCc1c(F)cccc1Cl)c1cc(Br)ccc1O	-3.1%	-3.7
CCOC(=O)c1ccc(NC(=S)NNC(=O)Cc2ccc(OCC)c(OCC)c2)cc1	18.4%	1.0
